LANA-nucl inh: LANA-nucleosome interaction inhibition; 51,000 tested, 0.3% active; z-score (no concentration beside the values); AID 720717; FITC-LANA1-23 / chicken nucleosome fluorescence polarization; stronger effect = lower value;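 active = both repeat wells score below -2 in polarization z-score versus plate sample wells, excluding overly bright wells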;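 also: 100 nL library stock added to about 30 µL; numbers are from one replicate; some results filed as inactive read as strong as hits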
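Test system: purified chicken nucleosomes with FITC-labelled LANA N-terminal peptide (1-23); Input: 240 nM purified chicken nucleosomes (480 nM peptide binding sites), final; Medium: TEN-BT buffer, pH 7.5; Timing: 10–45 min, room temperature; Technique: fluorescence polarization, 480 nm excitation, 535 nm parallel and perpendicular emission; Replication: duplicates.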
BasE inh: inhibitors of Acinetobacter baumannii siderophore enzyme BasE | purified BasE, fluorescence polarization binding displacement | inhibition, % (test concentration not listed) | 84,000 tested, 0.1% active;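 active = both replicates above 25% with normal brightness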;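 also: 0% = negative plate control signal and 100% = positive plate control signal; stock transfer was 100 nL into about 30 µL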
An asterisk follows results filed as active; · = not tested or not shown; & = joins results of further samples. These rows are one share of the data; rates above refer to the full screens.

Start of the listing, in advance:
SMILES	LANA-nucl inh	BasE inh
CN1CCSc2ccc(C(=O)NCc3ccc4c(c3)OCO4)cc21	0.0485	0.0
COc1ccc(-c2noc(CCC(=O)NC(C)C)n2)cc1OC	0.365	0.8
CNC(=O)CN(c1ccccc1)S(=O)(=O)c1ccc(OC)cc1	0.48	1.6
CCN(CC)C(=O)/C(C#N)=C/c1cc(O)c(O)c([N+](=O)[O-])c1	-0.096	·
CCC(CC)C(=O)Nc1cccc(C(=O)NC(C)(C)C)c1	0.136	-2.8
CSCCC(=O)Nc1cc(S(C)(=O)=O)ccc1Cl	·	1.9

This part in full, repeating the preview:
SMILES	LANA-nucl inh	BasE inh
CN1CCSc2ccc(C(=O)NCc3ccc4c(c3)OCO4)cc21	0.0485	0.0
COc1ccc(-c2noc(CCC(=O)NC(C)C)n2)cc1OC	0.365	0.8
CNC(=O)CN(c1ccccc1)S(=O)(=O)c1ccc(OC)cc1	0.48	1.6
CCN(CC)C(=O)/C(C#N)=C/c1cc(O)c(O)c([N+](=O)[O-])c1	-0.096	·
CCC(CC)C(=O)Nc1cccc(C(=O)NC(C)(C)C)c1	0.136	-2.8
CSCCC(=O)Nc1cc(S(C)(=O)=O)ccc1Cl	·	1.9
O=C(NCc1cccnc1)c1cnn2c(C(F)F)cc(-c3ccccc3)nc12	-0.465	3.0
O=C(NC1CC1)c1cc(S(=O)(=O)N2CCCCC2)ccc1N1CCOCC1	·	-0.7
Cn1c(=O)n(Cc2ccc(Cl)cc2)c2ccccc21	-0.948	0.0
Cc1cc(C)c(NC(=O)c2cn3c4c(c(N5CCN(C)CC5)c(F)cc4c2=O)OCC3C)c(C)c1 (stereo not given)	·	1.2
COC(=O)c1sccc1N	1.27	1.4
Cc1ccc(N2C(=O)C3C4C=CC(CNC(=O)OCc5ccccc5)(O4)C3C2=O)cc1 (stereo not given)	0.021	2.2
CCOC(=O)c1c(S(=O)(=O)N(C)c2ccc(C)cc2)c(C)n(C)c1C	·	-0.4
O=C(c1ccco1)N1CCN(C(=O)C2CCN(c3nc4ccccc4n3Cc3ccc(F)cc3)CC2)CC1	0.27	2.0
Cn1ccsc1=NC(=O)/C=C/c1ccccc1F	·	-2.1
CCN(CC)c1ccc(NC(=O)C(C)(C)C)cc1	0.0145	3.7
COc1ccc(O)c(C=Nc2ccc3c(c2)OCO3)c1	·	-0.4
Nc1cc2ccccc2cc1C(=O)O	·	-1.9
O=C(O)c1ccc(NC(NC(=O)c2ccco2)C(=O)c2ccccc2)cc1 (stereo not given)	0.438	0.9
CC(=O)OCc1ccccc1Oc1cccc(Cl)c1	0.497	·
CC1CC(NC(=O)c2ncn[nH]2)CC(C)(C)C1 (stereo not given)	0.488	-1.2
c1ccc2sc(N3CCN(Cc4nnnn4C4CCCC4)CC3)nc2c1	0.693	-1.5
CCCCN(C)Cc1nc2ccccc2n1C	-0.428	0.2
O=C(C(=S)N1CCOCC1)c1c[nH]c2ccccc12	0.181	0.1
O=C(/C=C/c1ccco1)Nc1ccccc1C(=O)c1ccccc1	0.292	0.1
Cc1c(C#N)c2nc3c(c(-c4ccccc4)c2n1-c1ccccc1)CCCC3	·	-0.3
N=c1c(C(=O)NCc2ccco2)cc2c(=O)n3ccccc3nc2n1CCCO	0.0645	-1.0
c1ccc2c(c1)CC(N1CCOCC1)C2	-0.235	-2.4
O=C(Cc1n[nH]c(=O)c2ccccc12)OCc1cc(=O)n2cc(Br)ccc2n1	·	-3.0
COc1ccccc1-c1noc(-c2cccc(Cl)c2)n1	1.14	-1.4
Cc1nc(N)sc1C	·	0.2
CC1(C)OC(=O)CC1C(=O)O (stereo not given)	-0.127	2.3
N/N=C(\c1ccccc1)c1cc(Br)ccc1N	2.72	-1.4
CC(C)NC(=O)c1ccc(NC2=NC3CS(=O)(=O)CC3S2)cc1 (stereo not given)	1.39	-0.6
CC(C)Cn1[nH]c(CC(=O)NN)cc1=O	·	2.7
COc1ccc(NCC(=O)N/N=C/C2=CCC3CC2C3(C)C)cc1 (stereo not given)	·	-0.5
CCC(=O)c1ccc(OCC(=O)NC2(C#N)CCCCC2)cc1	·	-2.6
CCC(=O)OC1CSc2nc3ccccc3n2C1 (stereo not given)	0.586	-1.6
COc1cccc2cc(C(=O)NC3=C(C#N)CCC3)c(=O)oc12	-0.383	4.5
O=C(Cn1c(=O)oc2ccccc21)N(C1CCCCC1)C1CCCCC1	·	0.0
CC1CN(P2(=O)C=C(c3ccccc3)OC(c3ccccc3)=C2)CC(C)O1 (stereo not given)	·	-0.3
CC(=O)Oc1cc(C)c2c(c1)oc(=O)c1ccccc12	0.193	-1.5
N=C(N)N=Nc1ccc(O)cc1	0.42	3.5
CN1C2CCC1CC(NC(=O)CSc1ccc(C(C)(C)C)cc1)C2 (stereo not given)	0.852	·
CCc1cccc2c(C=C(C#N)C#N)cn(CC(=O)N3CCCCCC3)c12	-0.015	-2.1
Cc1cccc2nc(Cn3c(=O)n(CCC(=O)NCc4ccco4)c(=O)c4sccc43)cc(=O)n12	-1.19	-1.7
Cc1ccc(S(=O)(=O)/N=C(\CN2CCOCC2)N2CCOCC2)cc1	0.174	-2.5
C/C=C/C(=O)Oc1ccc(Cl)cc1	0.608	0.6
CC(=O)Nc1cccc(C(=O)NC(C)c2ccccc2)c1 (stereo not given)	0.29	-1.2
CCc1nnc(SCc2cccc(OC)c2)c2cc3occc3n12	1.28	-2.9
O=C(NCC1CCCO1)NC(=O)c1ccccc1 (stereo not given)	1.46	-2.3
C=CCSc1nnc(NC(=O)CCNC(=O)c2ccco2)s1	·	0.9
CCN(CCN(C)C)Cc1ccc(NC(C)=O)cc1	0.145	0.6
O=C(O)Cc1ccc2c(c1)[nH]c1ccccc12	·	7.5
COc1cccc(/C=N/NC(=O)c2cccc(OC)c2)c1	-0.863	0.1
Nc1nnnn1CC(=O)N/N=C/c1ccc(-c2cccc(Cl)c2)o1	0.708	3.6
Cc1ccc(NC(=O)c2ccco2)c(NC(=O)C(C)C)c1	0.044	-0.7
Cc1c(C)n(C(=O)CN2CCN(c3ccc(F)cc3)CC2)c2ccccc12	-0.676	0.5
CCCCCCCCCCCCCCCCCCOC[C@H](COP(=O)([O-])OCC[N+](C)(C)C)OC	-0.347	-0.5
CC(=O)Nc1ccc2nc(SCc3c(C)cc(C)cc3C)sc2c1	·	1.9

Structural class: the entries above containing bromine
SMILES	LANA-nucl inh	BasE inh
O=C(Cc1n[nH]c(=O)c2ccccc12)OCc1cc(=O)n2cc(Br)ccc2n1	·	-3.0
N/N=C(\c1ccccc1)c1cc(Br)ccc1N	2.72	-1.4

Remaining list, next part.
SMILES	LANA-nucl inh	BasE inh
OCC1CCCN(c2ncnc3sc(-c4ccccc4)cc23)C1 (stereo not given)	·	-1.6
O=C(Nc1cccnc1)C(c1ccccc1)c1ccccc1	·	0.7
Cc1ccc(C)c2[nH]c(=O)c(CN(CCCN3CCCC3=O)S(=O)(=O)c3ccc(F)cc3)cc12	0.173	-1.7
O=C(COc1ncnc2ccc(Br)cc12)N1CCCCC1	·	1.2
CCCCC[C@H](O)/C=C/[C@H]1C=CC(=O)[C@@H]1CCCCCCC(=O)O	-0.383	-2.2
CCNC(=O)c1c(C)nc2ccccn12	0.013	-0.7
CCNC(=S)NC(=NC1CCCC1)Nc1nc(C)cc(C)n1	-0.366	-0.9
Cn1ncc(NC(=O)O/N=C/c2ccccc2)c1-n1cccc1	-0.134	1.0
COCC(C)NCc1ccc(OC)c(OC)c1 (stereo not given)	1.01	-3.3
CCCCNC(=O)C1Cc2cc(Cl)ccc2O/C1=N\O (stereo not given)	1.04	-0.9
Cc1ccc(C(=O)CC(=O)c2ccccc2O)cc1	-0.505	2.5
CCOC(=O)C1CCCCN1S(=O)(=O)c1ccc2[nH]c3c(c2c1)CCCC3 (stereo not given)	-0.889	0.3
CC(C)n1ncc2c(C(=O)NC3CCCCC3)cc(C3CC3)nc21	·	0.7
Cc1cc(N2CCCCC2)nc2ccc(NC(=O)/C=C/c3ccco3)cc12	0.123	0.3
CCOC(=O)c1c(NC(=O)Cn2cnc3sccc3c2=O)sc(C)c1CC	·	0.5
COc1ccc(/C=C2/C(=O)N(Cc3ccccc3)N=C2C)cc1	·	3.9
C/C(=C\C(=O)c1cccnc1)Nc1ccccc1O	0.054	29.6*
CN1C2CCC1CC(NC(=O)CS(=O)(=O)c1ccc(F)cc1F)C2 (stereo not given)	0.688	·
C=CCn1c(N)c(C(=O)OCC)c2nc3ccccc3nc21	·	-5.3
O=S(=O)(Cc1ccc(Cl)cc1)Nc1nc2ccccc2s1	1.19	0.7
COc1cccc(C(=O)O/N=C(\N)c2ccncc2)c1OC	0.195	2.3
CCOC(=O)c1nn(-c2ccccc2)c(=O)c(C#N)c1C	-1.37	2.1
Cc1cc(N2CCC(C(O)(c3ccccc3)c3ccccc3)CC2)nc(C)n1	0.727	-3.6
O=C(NC(Nc1ncccn1)C(=O)c1ccccc1)c1ccccc1 (stereo not given)	1.19	-2.8

Retrieved by structure from the entries so far (2):
SMILES	LANA-nucl inh	BasE inh
CCOC(=O)c1c(S(=O)(=O)N(C)c2ccc(C)cc2)c(C)n(C)c1C	·	-0.4
CCC(CC)C(=O)Nc1cccc(C(=O)NC(C)(C)C)c1	0.136	-2.8

Carrying on:
SMILES	LANA-nucl inh	BasE inh
Cc1ccc(C)c(OCCCC(C)(C)C(=O)O)c1	-0.4&0.106&0.505&1.01	0.2&-7.1
COc1cccc(OC)c1OC	-0.104	3.6
c1c(SSc2cn3c(n2)CCC3)nc2n1CCC2	0.109	1.7
CCCn1c(N)c(C(=O)CN(C)CC(=O)Nc2ccc(Cl)cc2)c(=O)[nH]c1=O	·	-0.4
Cc1ccnc(N2CCC(C(=O)NCCC(C)C)CC2)n1	-0.847	-0.3
CC(C)NC(=O)C1CCN(C(=O)c2ccc(Cl)cc2)CC1	-0.115	-0.8
Clc1cnccn1	-0.68	-0.3
N#Cc1c(=O)c2ccccc2n2ccccc12	0.0395	-1.6
CC(=O)NC(C(=O)NC1CC1)C(C)C (stereo not given)	·	-2.7
CCC(=O)Nc1ccc(C2=NNC(=NCCN3CCOCC3)SC2)cc1	·	-7.3
CCOc1ccc(C(=O)N(Cc2ccc(N(C)C)cc2)CC2CCCO2)cc1 (stereo not given)	0.684	-1.2
Cc1ccc(S(=O)(=O)N[C@@H](Cc2ccccc2)C(=O)CCl)cc1	0.125	-1.1
CC(C)Cn1nc(C(N)=O)c2ccccc2c1=O	·	0.1
CCN(CC)C(=O)c1cccc(NC(=O)Cc2coc3cc(C)ccc23)c1	·	0.9
O=C(Cn1c(SCC(=O)N2CCc3ccccc32)nc2ccccc21)NC1CC1	1.37	0.0
CC(C)N1CCC(NC(=S)NCc2ccccc2)CC1	·	1.3
CC1CCC/C(=N/NC(=O)c2c[nH]c3ccccc23)C1 (stereo not given)	·	1.4
CC(NS(=O)(=O)c1ccc(Oc2cccc(Cl)c2C#N)cc1)C(C)(C)C (stereo not given)	·	0.1
O=C(COC(=O)C1CCCCC1)Nc1ccc(Cl)cn1	·	-0.7
O=c1[nH]nc(-c2cc(C(F)(F)F)cc(C(F)(F)F)c2)c2ccccc12	·	1.3
CCN(CC)CCNC(=O)c1cc(S(C)(=O)=O)ccc1OC	-0.356&0.963&0.504	-2.2&0.7
Cc1ccc2oc(=O)c3cnn(CC(=O)N(Cc4ccco4)C4CCCC(C)C4C)c3c2c1 (stereo not given)	-0.554	1.7
O=C(SC1=NCCc2ccccc21)c1ccccc1	·	0.8
O=C(C1CC1)N1CCN=C1SCc1c(F)cccc1Cl	-0.946	0.4

3 structures from above, arranged by molar mass, lowest first:
SMILES	LANA-nucl inh	BasE inh
Cc1ccc(C(=O)CC(=O)c2ccccc2O)cc1	-0.505	2.5
CCN(CC)C(=O)/C(C#N)=C/c1cc(O)c(O)c([N+](=O)[O-])c1	-0.096	·
COc1ccc(-c2noc(CCC(=O)NC(C)C)n2)cc1OC	0.365	0.8

The listing continues.
SMILES	LANA-nucl inh	BasE inh
O=C(O)c1cc(NC(=O)c2ccc(NC(=O)c3ccco3)cc2)cc(C(=O)O)c1	0.114	0.5
O=C(OCC(=O)N1CCCC1=O)c1ccc2c(c1)OCO2	·	-1.3
O=S(=O)(c1ccccc1)N1CCC(c2nc3ccccc3[nH]2)CC1	0.515	1.5
O=c1c(N2CCOCC2)nnc2sc3ccccc3n12	·	-0.7
CC1=NOC(=O)/C1=C/c1ccc(N(C)C)cc1	·	-0.2
CC(C)=CC(=O)Nc1ccccc1C(F)(F)F	-1.22	2.4
Clc1ccc(C2=NNC(=NCCCN3CCOCC3)SC2)c(Cl)c1	·	-6.3
CCCSc1nnc2n(N)c(=O)c3ccccc3n12	0.631	1.6
N#Cc1ccccc1COC(=O)CNC(=O)c1ccccc1	·	2.0
Clc1cccc(-c2nc(NCCN3CCOCC3)nc3c2COc2ccccc2-3)c1	-0.637	1.6
C=CCN1C(=O)S/C(=C/c2cc(Cl)cc(OC)c2O)C1=O	-0.199	-1.3
CC1CC(C)(C)Cc2c1sc(NC(=O)c1ccco1)c2C#N (stereo not given)	·	0.3
CC1(C(=O)NC2CCCC2)CCC(=O)N1C1CCCCC1 (stereo not given)	0.346	-0.3
CC(=O)N(C(C)=O)c1ccc2c(c1)C(C)(C)C(C)N2C (stereo not given)	·	0.8
CN1C(=O)COc2ccc(C(=O)CSc3nnc(-c4ccoc4)c(-c4ccoc4)n3)cc21	-0.833	-0.4
O=c1c2ccccc2[nH]c(=S)n1CCc1ccccc1	·	0.7
CC1CCCN(C(=S)NCc2ccccc2)C1 (stereo not given)	·	0.5
CCc1ccc(NC(=O)CS(=O)CC(=O)Nc2ccc(F)cc2F)cc1 (stereo not given)	0.385	-3.6
Cc1cc(N2CCCC2)ccc1/C=C/C1=CCN(C)CC1	-4.13*	-7.8
N#CC(C(=O)Nc1ccc(Cl)cc1)C(=O)c1cccs1 (stereo not given)	·	9.3
